CtBP-E1A blk = CtBP/E1A binding inhibition | 340,000 tested, 0.49% active | AlphaScreen GST-E1A/His-CtBP binding, 1536-well; stronger effect = lower value; control for the full effect not named in the record | AID 651724 | activity change, % (concentration not given with the values); in the data active means activity change below about -65%; inconclusive means about -30% to -65%; inactive means above about -30%; also: % is scaled to controls: 0 for no effect and ±100 for the full control effect
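Homogeneous bead-based format: GST-tagged E1A captured on glutathione donor beads, His-tagged CtBP on nickel acceptor beads; compounds precede bead addition by 2 h at 37 °C.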
Six1-Eya2 inh = blocks human Six1 binding to Eya2; 360,000 tested, 0.56% active; AlphaScreen GST-Six1/His-Eya2 binding, biochemical; stronger effect = lower value; control for the full effect not named in the record; Q15475+O00167; activity change, % (concentration not given with the values); in the data active = activity change below about -65%; inconclusive = about -30% to -65%; inactive = above about -30%; also: % is scaled to controls: 0 for no effect and ±100 for the full control effect
Target sequence (O00167 whole entry, looked up): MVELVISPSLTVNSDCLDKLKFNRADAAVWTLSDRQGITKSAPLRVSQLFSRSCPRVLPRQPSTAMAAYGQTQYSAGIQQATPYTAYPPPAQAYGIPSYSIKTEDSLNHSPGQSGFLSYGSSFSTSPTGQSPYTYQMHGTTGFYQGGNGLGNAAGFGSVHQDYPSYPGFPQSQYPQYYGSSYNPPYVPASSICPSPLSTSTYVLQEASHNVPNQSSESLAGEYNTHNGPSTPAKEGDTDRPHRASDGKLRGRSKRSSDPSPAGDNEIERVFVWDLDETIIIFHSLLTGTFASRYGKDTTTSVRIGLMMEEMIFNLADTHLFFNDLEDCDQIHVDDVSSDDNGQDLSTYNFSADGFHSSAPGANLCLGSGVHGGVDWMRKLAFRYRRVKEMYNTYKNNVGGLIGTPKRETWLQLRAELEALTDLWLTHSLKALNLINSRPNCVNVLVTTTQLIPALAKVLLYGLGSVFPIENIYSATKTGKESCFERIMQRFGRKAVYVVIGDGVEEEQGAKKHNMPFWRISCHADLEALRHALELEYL
Target sequence (Q15475 whole entry, looked up): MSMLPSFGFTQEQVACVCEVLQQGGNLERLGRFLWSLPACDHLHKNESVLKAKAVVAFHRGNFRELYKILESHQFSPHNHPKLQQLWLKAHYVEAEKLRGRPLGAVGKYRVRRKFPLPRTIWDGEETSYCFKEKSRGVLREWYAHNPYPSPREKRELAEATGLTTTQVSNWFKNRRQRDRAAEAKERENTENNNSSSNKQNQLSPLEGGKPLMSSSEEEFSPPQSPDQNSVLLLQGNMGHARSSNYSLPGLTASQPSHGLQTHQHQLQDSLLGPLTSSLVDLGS
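AlphaScreen luminescence read after one hour at 37 °C in darkness. Pin-transferred compounds met GST-Six1 and His-Eya2 protein (5X stock 250 nM/500 nM) plus glutathione donor and Ni-chelate acceptor beads (5X, 50 ug/mL).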
D2 ag = agonists of human D2 dopamine receptor (beta-arrestin) | DiscoveRx PathHunter D2 beta-arrestin, luminescence, 90 min; 100% = 57 uM dopamine signal | 360,000 tested, 0.084% active | P14416 | activation, % (test concentration not listed) | AID 624465; in the data active = activation above about 40%; inconclusive = about 15% to 40%; inactive = below about 15%; also: compound concentration not given in the record; the text of the record calls up to 30% inactive
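DiscoveRx PathHunter D2 beta-arrestin cells (2,100/well) attached overnight, then compound-stimulated 90 min at 37 C in HBSS/10 mM HEPES/0.1% Tween-20 buffer; beta-galactosidase complementation read by luminescence after 1 h at ambient temperature. Dopamine 57 uM final (EC100) as control.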
D2 potentiator = potentiates the human D2 dopamine receptor allosterically. P14416. DiscoveRx D2 beta-arrestin cells, luminescence, 90 min; 100% = 57 uM dopamine signal. potentiation, % (concentration not given with the values). 360,000 tested, 0.23% active; active = potentiation of 50% or more; inconclusive = 30% to 50%; inactive = 30% or less;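 also: compound concentration not given in the record; tested on top of an EC20 dose of dopamine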
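PathHunter beta-arrestin assay in DiscoveRx D2 cells. Compounds were added with an EC20 of dopamine (50 nM final) for 90 min at 37 deg C. Luminescence was read 1 h after detection reagent, with 57 uM dopamine as the EC100 control.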
PINK1 expr mod = modulators of PINK1 expression. PINK1 immunofluorescence, high-content cytometry, 24 h. Potency, µM (highest dose often 76.6 µM), inactives show at the top dose activation (PINK1 increase), actives largely listed as activators. 410,000 tested, 0.2% active; active = well fitted activation curve with a large enough effect; inconclusive = small, poorly fitted or top-dose-only effect; inactive = flat fitted curve, though single readings scatter; cell line not stated here;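 also: potency is read from the fitted curve at half-maximal effect; % of control where 0% means no effect; nearly all actives have a fitted effect of over 65% in size; a mitochondrial uncoupler was the plate control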
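PINK1 protein, normally rapidly degraded, was detected by immunofluorescence after 24 hour compound treatment of a stable cell line. Titration data (5 concentrations) came from laser-scanning cytometry, with CCCP-treated wells as controls.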
TRPML1 agonist = agonists of human TRPML1 channel | Q9GZU1 | TRPML1-expressing cells, Ca2+ dye fluorescence, FDSS; host cell line not named in the record; reference of the full effect not given here | activation, % (concentration not given with the values) | 410,000 tested, 0.12% active; in the data active = activation above about 50%; inconclusive = about 30% to 50%; inactive = below about 30%; also: 0% is about no effect; the text of the record puts the active cut at 80%
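Calcium fluorescence on an FDSS kinetic reader gave the read-out. Tet-induced TRPML1-DL cells were plated overnight, dye-loaded (Ca8 with quencher, 45-90 min, room temperature, dark), then read 110 s after compound addition, and again 110 s after 4uM final 54-4 (EC80).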
* = called active by the depositor; ? = inconclusive; . = no result given; & = joins results of further samples; [ ] = remark or other dose.

Letters: A = CtBP-E1A blk; B = Six1-Eya2 inh; C = D2 ag; D = D2 potentiator; E = PINK1 expr mod; F = TRPML1 agonist
> Cn1c(C(=O)OC(C(=O)NCc2ccco2)c2ccncc2)cc2sccc21 (stereo not given)
  A = -14.5	B = -11.9	C = -0.7	D = -8.4	E = -0.7%	F = 0.6
> O=C(COc1ccccc1)OCc1cc(-c2ccco2)on1
  A = -20.4	B = 2.5	C = 4.6	D = -2.8	E = -1.6%	F = 2.1
> CC1(c2nc3ccccc3[nH]2)CCC2=Nc3ccccc3CN21 (stereo not given)
  A = -7.9	B = -8.4	C = .	D = .	E = -0.1%	F = -0.2
> CCOC(=O)Cn1cnc(-c2ccc([N+](=O)[O-])cc2)c1
  A = -6.0	B = 8.3	C = -1.3	D = -3.3	E = -2.6%	F = 0.6
> Cn1c(N)c(C(=O)COC(=O)Cc2ccccc2F)c(=O)n(C)c1=O
  A = -3.7	B = -9.4	C = -4.1	D = -2.6	E = -2.9%	F = -0.2
> CCCCNC(=O)CN1C(=O)NC2NC(=O)NC21 (stereo not given)
  A = 7.3	B = 0.3	C = ?	D = 1.3	E = -0.2%	F = -0.4
> O=C(O)CCSc1nnc(-c2ccccc2)n1-c1ccccc1
  A = 1.1	B = 0.8	C = -1.6	D = -6.5	E = -3.6%	F = -0.5
> CCOC(=O)C1CCCN(C(=O)COc2ccc(S(=O)(=O)N(CC)c3ccccc3)cc2)C1 (stereo not given)
  A = 3.1	B = 2.8	C = -2.4	D = -26.4	E = 3.8%	F = -1.5
> NC(Cc1ccc(C(F)(F)F)cc1)c1csc(Nc2cc(Oc3ccccc3)ncn2)n1 (stereo not given)
  A = -20.8	B = 6.4	C = ?	D = 1.1	E = -1.2%	F = 2.1
> COc1cc(Cl)ccc1OCc1cc(C(=O)N2CCN(C3CCCCC3)CC2)no1
  A = -3.6	B = -7.6	C = 3.4	D = -21.8	E = 1.1%	F = 0.0

One compound at a time (already shown).
Profile of NC(Cc1ccc(C(F)(F)F)cc1)c1csc(Nc2cc(Oc3ccccc3)ncn2)n1 (stereo not given) : CtBP-E1A blk = -20.8; Six1-Eya2 inh = 6.4; D2 ag = ?; D2 potentiator = 1.1; PINK1 expr mod = -1.2%; TRPML1 agonist = 2.1
Profile of COc1cc(Cl)ccc1OCc1cc(C(=O)N2CCN(C3CCCCC3)CC2)no1 : CtBP-E1A blk = -3.6; Six1-Eya2 inh = -7.6; D2 ag = 3.4; D2 potentiator = -21.8; PINK1 expr mod = 1.1%; TRPML1 agonist = 0.0

(cont.)
Letters: A = CtBP-E1A blk; B = Six1-Eya2 inh; C = D2 ag; D = D2 potentiator; E = PINK1 expr mod; F = TRPML1 agonist
> OC(COc1ccccc1CNCc1cccnc1)CN1CCc2ccccc2C1 (stereo not given)
  A = .	B = -0.6	C = -2.9	D = -9.3	E = -0.9%	F = 0.4
> COc1ccc(CNc2nc3c(c(=O)[nH]c(=O)n3C)n2CCCc2ccccc2)cc1
  A = 1.8	B = 2.8	C = -2.5	D = -21.9	E = 4.9%	F = -1.0
> COc1ccc(C2CC(c3ccccc3)=NN2C(=O)COC(=O)c2cccc(O)c2)cc1 (stereo not given)
  A = -3.7	B = -0.4	C = -1.1	D = -10.5	E = -1.8%	F = -0.7
> COc1ccc(CC(=O)NCC2CCCCC2)cc1OC
  A = .	B = 12.6	C = -7.1	D = -11.7	E = 4.8%	F = 0.7
> COc1ccc2nc3cc([N+](=O)[O-])ccc3c(NNc3ccc([N+](=O)[O-])cc3)c2c1
  A = -2.5	B = -13.4	C = 7.5	D = ?	E = -0.8%	F = 0.0
> CC(=O)N1CC(C(=O)Nc2ccc3c(c2)OCO3)Oc2ccccc21 (stereo not given)
  A = -1.5	B = -9.1	C = -0.5	D = 0.4	E = 4.7%	F = 0.6
> C=CCn1c(P(C)(=O)O)nc2ccccc21
  A = 4.1	B = 2.7&8.5	C = -2.1&0.7	D = -34.1&-4.5	E = -0.2%&0.1%	F = 2.2&-0.2
> CC(C)C1C(=O)N(Cc2cn(CCC3OCCCO3)nn2)CCS(=O)(=O)N1Cc1ccc(-c2cccc(N(C)C)c2)cc1 (stereo not given)
  A = -5.9	B = -2.1	C = -2.4	D = -1.5	E = 0.4%	F = 0.1
> Cc1ccc(NC(=O)CCN2C(=O)c3ccccc3S2(=O)=O)cc1C
  A = 1.9	B = -0.4	C = -0.2	D = -4.4	E = 4.0%	F = 0.8
> Cc1sc2nc(SCC(=O)Nc3ccc(S(=O)(=O)NCCCC(=O)O)cc3)[nH]c(=O)c2c1C
  A = 0.0	B = -16.6	C = -4.9	D = -8.2	E = -1.7%	F = -0.6
> O=C(O)c1cccc(NC(=O)c2ccc(N3C(=O)c4ccc(C(=O)Nc5cccc(C(=O)O)c5)cc4C3=O)cc2)c1
  A = -2.1	B = -19.7	C = 0.5	D = 0.0	E = -1.2%	F = -0.3
> Fc1ccccc1/C=N/Nc1cc(N2CCCCC2)ncn1
  A = .	B = 2.3	C = 0.3	D = -23.9	E = 0.3%	F = 1.9
> COc1ccc(-c2cc(NC=O)c3ncc(-c4cccc(C(=O)NCCN(C)C)c4)n3c2)cc1
  A = -9.8	B = -8.7	C = 13.3	D = -1.6	E = 0.3%	F = 0.1
> CC(=O)Nc1ccc(S(=O)(=O)N(C)CC(=O)OCC(=O)c2cc(C)n(-c3ccc4c(c3)OCO4)c2C)cc1
  A = -8.5	B = -14.6	C = -0.2	D = -5.1	E = -0.7%	F = -0.2
> O=C(N/N=C/c1cccs1)c1ccccn1
  A = -26.7	B = -11.3	C = -2.5	D = -7.0	E = -2.8%[38.3 µM]	F = 1.1
> O=[n+]1cc(-c2ccc(Cl)cc2)n([O-])c2c1CCCCC2
  A = -23.1	B = -1.8	C = 0.8	D = 0.5	E = 3.7%	F = 0.4
> COc1ccc(C(C(=O)NCc2ccccc2)N(Cc2cccnc2)C(=O)c2snc(C(N)=O)c2N)cc1OC (stereo not given)
  A = -3.9	B = 2.8	C = -3.9	D = -12.7	E = 1.5%	F = 1.1
> COC(=O)/C(C#N)=C/c1c(Oc2cc(C)cc(C)c2)nc2ccccn2c1=O
  A = -2.9	B = 3.2	C = -2.6	D = -4.5	E = 1.9%	F = 3.6
> c1ccc(Oc2cccc(OCCCCN3CCCC3)c2)cc1
  A = -11.7	B = -1.3	C = 0.3	D = -7.5	E = 4.8%	F = 1.8
> CCC[N+](C)(C)C(C)C(OC(C)=O)c1ccccc1 (stereo not given)
  A = -5.2	B = -8.6	C = -6.2	D = -4.4	E = -0.9%	F = 0.3
> O=C(/C=C/c1cccc([N+](=O)[O-])c1)Nn1c(-c2ccccc2F)nc2ccccc2c1=O
  A = -27.9	B = -6.1	C = -0.6	D = 1.4	E = -0.3%	F = 0.4
> O=C(OCCN1CCCCC1)C1(c2ccccc2)CCCC1
  A = 19.2	B = 3.7	C = -3.3	D = -14.2	E = -0.1%	F = 0.2
> O=C(NCC1CCCO1)c1cccc(S(=O)(=O)NCc2ccccc2)c1 (stereo not given)
  A = 0.0	B = 5.5	C = -3.0	D = -3.9	E = 0.7%	F = -0.6
> Cc1cccc(OCCCC(=O)NC(C)c2ccccc2)c1 (stereo not given)
  A = 0.8	B = -2.0	C = -1.1	D = -0.9	E = 4.7%	F = 1.1
> CC(C)C(C)NC(=O)COc1ccc([N+](=O)[O-])cc1Cl (stereo not given)
  A = -15.6	B = -0.1	C = 1.3	D = -4.1	E = -0.5%	F = 1.3
> Cn1c(N)c(S(=O)(=O)N2CCN(c3ccccc3Cl)CC2)c(=O)n(C)c1=O
  A = 0.6	B = -1.6	C = -0.5	D = 2.2	E = 3.7%	F = 0.2
> Cc1ccccc1NC(=O)C1C2CCCCC21 (stereo not given)
  A = .	B = 15.0	C = -3.1	D = -22.9	E = 2.4%	F = -0.3
> COc1cc(C2C(C#N)=C(N)Oc3n[nH]c(-c4ccccn4)c32)cc(OC)c1OC (stereo not given)
  A = ?	B = ?	C = -0.2	D = -0.9	E = 3.0%	F = -0.8
> CCOP(=O)(OCC)c1nc(-c2ccccc2Cl)oc1N1CCOCC1
  A = -0.6	B = -1.0	C = -22.1	D = -2.9	E = ?	F = -0.4
> CCOc1ccccc1N1CCN(CC(=O)N(C)CC(=O)Nc2ccccc2CC)CC1
  A = 0.9	B = 12.9	C = -3.1	D = -26.0	E = 1.7%	F = -0.4
> CCOC(=O)C1=C(c2ccccc2)NC(N)=NC1c1ccc(OCc2ccc(Cl)cc2)c(OC)c1 (stereo not given)
  A = .	B = -11.3	C = -0.2	D = -12.2	E = 0.2%	F = 2.0
> Cc1ccc(C(=O)C(C)OC(=O)CCN2C(=O)C3C4C=CC(C5CC45)C3C2=O)cc1 (stereo not given)
  A = 6.6	B = 5.3	C = 8.3	D = -3.5	E = 2.4%	F = 1.9
> CC(=O)Nc1cc(C(=O)N2CCCC2)ccc1S(=O)(=O)c1ccc(C)cc1
  A = 3.1	B = 12.1	C = -3.9	D = -19.5	E = 1.0%	F = -0.1
> OCc1cc(C(O)CNCCCCCCOCCCCc2ccccc2)ccc1O (stereo not given)
  A = -20.1	B = -8.7	C = -1.9	D = -12.4	E = -0.7%	F = 0.5
> O=C(NCCCN1CCOCC1)c1sc2ccccc2c1Cl
  A = .	B = -1.7	C = -0.8	D = -8.4	E = -0.8%	F = -0.3
> CCn1c(C)cc(=S)c2ccccc21
  A = 4.1	B = -7.3	C = 3.2	D = -2.4	E = -0.2%	F = 0.5
> O=C(CN1CCN(c2ccc(F)cc2)CC1)Nc1ccc(S(=O)(=O)N2CCOCC2)cc1
  A = -1.0	B = 1.5	C = -0.1	D = -11.7	E = 3.7%	F = -0.2
> COC(=O)CS(=O)(=O)c1ccsc1C(=O)Nc1ccc(F)c(F)c1
  A = -3.5	B = -1.1	C = -5.0	D = -2.7	E = 0.2%	F = 1.3
> CCOc1ccc(OCCNCc2ccc(OC(C)C(=O)N(C)C)c(OCC)c2)cc1 (stereo not given)
  A = 0.9	B = 0.3	C = -5.6	D = -21.3	E = 7.9%	F = -0.2
> Cc1ccc(OCC(O)Cn2nc(C)cc2C)cc1 (stereo not given)
  A = 8.9	B = 0.3	C = -4.5	D = -3.2	E = 0.2%	F = .
> Cc1ccc(N2C(=O)N(Cc3ccccc3C)c3ccccc3S2(=O)=O)cc1
  A = 0.5	B = 7.8	C = -2.9	D = 0.5	E = 4.5%	F = 0.6
> O=C(NNS(=O)(=O)c1ccc([N+](=O)[O-])cc1)c1ccncc1
  A = -2.6	B = 39.7	C = -4.1	D = 9.2	E = 1.2%	F = 0.5
> CCCOc1ccc(Br)cc1CSC(=N)N
  A = 18.8	B = 12.5	C = -11.1	D = -6.6	E = -2.3%	F = 2.6
> CCNc1ccc(S(=O)(=O)N(C)C)cc1NCC(=O)Nc1c(F)cccc1F
  A = -6.9	B = -1.5	C = 1.2	D = 7.1	E = 0.1%	F = -0.9

Structures above that have a furan ring, fused or not, in the order listed:
Letters: A = CtBP-E1A blk; B = Six1-Eya2 inh; C = D2 ag; D = D2 potentiator; E = PINK1 expr mod; F = TRPML1 agonist
> Cn1c(C(=O)OC(C(=O)NCc2ccco2)c2ccncc2)cc2sccc21 (stereo not given)
  A = -14.5	B = -11.9	C = -0.7	D = -8.4	E = -0.7%	F = 0.6
> O=C(COc1ccccc1)OCc1cc(-c2ccco2)on1
  A = -20.4	B = 2.5	C = 4.6	D = -2.8	E = -1.6%	F = 2.1
